HPGD inh – qHTS Assay for Inhibitors of HPGD (15-Hydroxyprostaglandin Dehydrogenase); purified HPGD, NADH fluorescence kinetic, PGE2 substrate; Potency, µM, for the others: at the highest dose activity change, negative = inhibition, actives largely listed as inhibitors; hit rate 4.3% among 150,000; active = well fitted inhibition curve with a large enough effect (not every such curve was filed as active); inconclusive = small, poorly fitted or top-dose-only effect, or another doubt; inactive = no such curve, though single readings can be large or run the other way;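 also: top concentration of the series not given in the record; plate controls included wells without enzyme; inactives centre near -10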
Target sequence (P15428 whole entry, looked up): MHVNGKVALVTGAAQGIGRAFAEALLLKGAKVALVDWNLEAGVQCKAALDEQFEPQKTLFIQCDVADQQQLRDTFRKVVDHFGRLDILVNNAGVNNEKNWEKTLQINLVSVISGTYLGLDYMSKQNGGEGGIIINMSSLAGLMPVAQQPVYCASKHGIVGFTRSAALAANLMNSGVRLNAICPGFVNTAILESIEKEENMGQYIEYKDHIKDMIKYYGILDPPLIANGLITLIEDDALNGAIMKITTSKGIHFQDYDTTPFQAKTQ
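20 nM HPGD preincubated 15 min at room temperature with compound in 50 mM Tris-HCl pH 8, 0.01% Tween 20. Started with 1 mM NAD+ and 30 uM prostaglandin E2; NADH fluorescence (360/450 nm) read 5 times over 30-s intervals, last minus first.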
* = called active by the depositor; u = inconclusive. % is scaled to controls: 0 for no effect and ±100 for the full control effect; potency is read from the fitted curve at half-maximal effect. Only part of the results is shown; the hit share may differ from the screen's.

HPGD inh	molecule
u	O=C(NCC1CCCO1)c1cc(-c2ccco2)nc2ccccc12 (centres undefined)
-19%	Cc1ccccc1C(=O)NC1CCN(C(=O)N(c2ccccc2)c2ccccc2)CC1
-10%	COCCSc1ccccc1C(=O)N1CCN(Cc2ccc3c(c2)OCO3)CC1
-13%	CCN(CC)S(=O)(=O)c1ccc(N=NC2=C(O)CC(C)(C)CC2=O)cc1
u	CCN1c2ccccc2-c2nc3ccccc3n2C1c1ccccn1 (centres undefined)
u	O=C(c1cc2c(ccc3ccccc32)oc1=O)N1CCN(CCO)CC1
u	CCCCOC(=O)CNc1nnc(SCC(=O)OCC)[nH]c1=O
-10%	Cc1ccccc1N=C1NN=C(c2ccccc2F)CS1
-21%	C1CCN(c2c3c(nc4nnnn24)CCCC3)CC1
-9%	COc1ccc(OCC(=O)N/N=C/c2ccc(OC)c(OC)c2C(=O)O)cc1
-3%	COc1ccccc1OCC(=O)OCC(=O)Nc1ncc(Cl)cc1Cl
-7%	Cc1[nH]nc2c1C1(CCC3(CC1)OCCO3)C(C#N)=C(N)O2
-12%	CCn1c(CN2CCCCCC2=O)nnc1SCc1cnc(-c2ccccc2)s1
-9%	CCCCCn1c(=O)[nH]c2c(c1=O)CCC2
-9%	CCO/N=C(/C)c1c(O)cc(C(C)(C)C)n(-c2ccccc2)c1=O
-19%	COC(=O)c1cc(COc2ccc3c(c2)oc(=O)c2ccccc23)c(C)o1
-20%	O=C(COc1ccccc1Cl)NC(=S)Nc1cccc(NC(=O)c2ccccc2Cl)c1
-8%	CCOCCn1c(-c2ccc(OC)cc2)nc2ccccc21
u	O=C(CSc1cccc2cccnc12)NCc1ccco1
-4%	C=CC(=O)OCCCCCCOC(=O)C=C
-16%	CCOc1ccc2[nH]c(C)c(CN3CCN(C)CC3)c(=O)c2c1
-27%	COc1ccc(C2C(C(=O)c3sc(C)nc3C)=C(O)C(=O)N2CCCn2ccnc2)cc1OC (centres undefined)
-13%	CC(Cl)C(=O)NNc1cccc(Cl)n1 (centres undefined)
-13%	COc1ccc(C(=O)CN2CCN(S(=O)(=O)c3cccc([N+](=O)[O-])c3)CC2)cc1
5%	CC(C)(C)C(=O)NC1CCN(C(=O)N2CCCC2)CC1
-9%	Cc1ccccc1NC(=S)N(C)C1(c2ccccc2Cl)CCCCC1=O (centres undefined)
-6%	Cc1cccc(C)c1NS(=O)(=O)c1ccc2c(c1)C(=O)c1ccccc1C2=O
-11%	Cc1cccc(C(=O)Nc2ccccc2N2CCN(c3ccc(F)cc3)CC2)c1
-7%	O=C(COc1ccccc1)Nc1ccccc1N1CCN(c2ccc(F)cc2)CC1
-12%	Cn1c(C(O)c2ccccc2)nc(Cl)c1Cl (centres undefined)
-23%	COC(=O)C(C)Sc1nc2c([nH]c3ccccc32)c(=O)n1C (centres undefined)
u	CCCn1c(-c2ccccc2)nc2c(=O)n(C)c(=O)[nH]c21
-15%	Cc1[nH]nc2c1C1(CCN(Cc3ccccc3)CC1)C(C#N)=C(N)O2
-2%	Cc1occc1-c1nnc(SCC(=O)Nc2nc3ccccc3s2)o1
-7%	CCCOc1ccccc1C(=O)NC(CO)C(=O)O (centres undefined)
-2%	c1ccc(OCCSc2nc3ccccc3[nH]2)cc1
-15%	O=C(O)CCC(C(=O)O)n1c(O)c(C2=c3ccccc3=NC2=O)sc1=S (centres undefined)
-10%	O=C(NC1CCCc2ccccc21)C1CCN(c2nnc(-n3cccc3)s2)CC1 (centres undefined)
-9%	CCOC(=O)Cc1csc(N/N=C/c2ccccc2)n1
u	O=C(CSc1nnnn1-c1cccc2c1CCCC2)NC1CCCC1
0%	CCC(C)n1c(SC(C)C#N)nc2ccccc2c1=O (centres undefined)
-8%	Cc1ccc(S(=O)(=O)CCC(=O)Nc2nccs2)cc1
-26%	CC(C)CNC(=S)NNC(=O)c1nn(C)cc1Cl
-25%	O=C(C1COc2ccccc2O1)N1CCOCC1 (centres undefined)
-14%	OC(c1cc(C(F)(F)F)nc2c(C(F)(F)F)cccc12)C1CCCCN1 (centres undefined)
-11%	COCCNC(=O)Cn1nc(-c2ccccc2OC)ccc1=O
-9%	CC(C)C(O)(C(C)C)C(C)C
-17%	COc1cccc([C@@H]2Oc3ccc(OC)cc3C(=O)[C@H]2OC(=O)NS(=O)(=O)c2ccc(F)cc2)c1
-26%	CCn1cc(C(=O)OCc2ccc(F)cc2)c(=O)c2ccc(C)nc21
u	CC(=O)c1ccc(NC(=O)c2ccc3nc(-c4ccco4)c(-c4ccco4)nc3c2)cc1
u	COc1ccc(C(=O)Nc2cccc3c2C(=O)NC3=O)cc1S(=O)(=O)N1CCOCC1
-9%	COc1cc(OC)cc(C(=O)N[C@H](C(=O)OCC(N)=O)C(C)C)c1
-8%	CCN(CC)CCOC(=O)c1ccc(NC(=O)C2(c3ccccc3)CCCC2)cc1
u	COc1ccc(CNc2nc3c(c(C(F)(F)F)n2)CCCCC3)cc1
-3%	COC(=O)CCCC1=CC2=CC(=O)C(C)(OC(=O)c3cccs3)C(=O)C2=CN1c1ccc(OC)cc1 (centres undefined)
-20%	O=C(Nc1nnc(SCc2ccccn2)s1)C1CC(=O)N(c2ccccc2)C1 (centres undefined)
-15%	CCOc1ccc(C2=Nn3c(nnc3-c3ccccn3)SC2)cc1
-29%	CC1(C)S[C@H]2[C@@H](NC(=O)C(N)c3ccccc3)C(=O)N2[C@H]1C(=O)O (some centres undefined)
-6%	CCn1c(SCC(=O)NCc2cccs2)nc2c1c(=O)n(C)c(=O)n2C
-23%	CSc1cccc(NC(=O)CSc2nc3ccccc3o2)c1

The list goes on.
HPGD inh	molecule
-1%	CCN(CC)CCN1C(=O)Cn2c(C)c(C)c3cccc1c32
-3%	CC(C)COP(=O)(OCC(C)C)C(Nc1ccccc1)c1ccc2c(c1)OCO2 (centres undefined)
-15%	COc1cc2nc(NCC3CCCO3)n3nc(-c4cccnc4)nc3c2cc1OC (centres undefined)
u	O=C1/C(=C/c2cccnc2)Oc2cc(OS(=O)(=O)c3ccccc3)ccc21
-1%	OC(COCc1ccc(Cl)cc1)CN1CCN(c2ccccn2)CC1 (centres undefined)
-13%	COc1ccc(NC(=O)CSc2ncc(-c3ccc(F)cc3)n2Cc2ccco2)cc1
-18%	Cc1cc(C(=O)OCC(=O)c2ccc(Cl)c([N+](=O)[O-])c2)c2cccc(C)c2n1
-18%	COc1ccc(NC(=O)c2cc(CN3C(=O)c4ccccc4C3=O)ccc2OC)cn1
-7%	CCCc1nc(SCC(=O)Nc2cc(C)on2)c2c(=O)n(C)c(=O)n(C)c2n1
-12%	CCCn1nnnc1NC(=O)COc1ccc(Cl)cc1C
-15%	Fc1ccccc1Cn1nnc2c(NCCc3ccccn3)ncnc21
-9%	CC(=O)c1ccc2c3c(cccc13)C(=O)N(c1c(C)nn(C)c1C)C2=O
-9%	NC(=O)C1CCN(S(=O)(=O)c2cccc(S(=O)(=O)N3CCCCC3)c2)CC1
-18%	CCOc1ccc2c(c1)-c1c(ssc1=S)C(C)(C)N2C(=O)c1ccco1
-14%	O=C(Nc1cccnc1)c1cc(-c2ccco2)on1
-14%	Cc1nc2nc(CSc3ccc(Cl)cc3)cc(=O)n2[nH]1
-10%	C1OCOCO1
-12%	C=CCN(C(=O)Nc1ccccc1)C1CC(=O)N(c2ccc(OC)cc2)C1=O (centres undefined)
-16%	O=C(NCCCN1CCCC1=O)NC1CCCCC1
0%	O=C(NC1CCN(C(=S)NCc2ccco2)CC1)C12CC3CC(CC(C3)C1)C2

In the list so far, 15 have an aryl methoxy group:
HPGD inh	molecule
-9%	COc1ccc(OCC(=O)N/N=C/c2ccc(OC)c(OC)c2C(=O)O)cc1
-3%	COc1ccccc1OCC(=O)OCC(=O)Nc1ncc(Cl)cc1Cl
-8%	CCOCCn1c(-c2ccc(OC)cc2)nc2ccccc21
-27%	COc1ccc(C2C(C(=O)c3sc(C)nc3C)=C(O)C(=O)N2CCCn2ccnc2)cc1OC (centres undefined)
-13%	COc1ccc(C(=O)CN2CCN(S(=O)(=O)c3cccc([N+](=O)[O-])c3)CC2)cc1
-11%	COCCNC(=O)Cn1nc(-c2ccccc2OC)ccc1=O
-17%	COc1cccc([C@@H]2Oc3ccc(OC)cc3C(=O)[C@H]2OC(=O)NS(=O)(=O)c2ccc(F)cc2)c1
u	COc1ccc(C(=O)Nc2cccc3c2C(=O)NC3=O)cc1S(=O)(=O)N1CCOCC1
-9%	COc1cc(OC)cc(C(=O)N[C@H](C(=O)OCC(N)=O)C(C)C)c1
u	COc1ccc(CNc2nc3c(c(C(F)(F)F)n2)CCCCC3)cc1
-3%	COC(=O)CCCC1=CC2=CC(=O)C(C)(OC(=O)c3cccs3)C(=O)C2=CN1c1ccc(OC)cc1 (centres undefined)
-15%	COc1cc2nc(NCC3CCCO3)n3nc(-c4cccnc4)nc3c2cc1OC (centres undefined)
-13%	COc1ccc(NC(=O)CSc2ncc(-c3ccc(F)cc3)n2Cc2ccco2)cc1
-18%	COc1ccc(NC(=O)c2cc(CN3C(=O)c4ccccc4C3=O)ccc2OC)cn1
-12%	C=CCN(C(=O)Nc1ccccc1)C1CC(=O)N(c2ccc(OC)cc2)C1=O (centres undefined)

Next results follow.
HPGD inh	molecule
-6%	Cc1cccc(OCC(=O)Nc2nc3ccc([N+](=O)[O-])cc3s2)c1C
-11%	Cc1ccc(C(=O)NCc2ccc3c(c2)OCO3)cc1N1CCCC1=O
-3%	CC(=O)Nc1ccc(S(=O)(=O)NCCSCc2cccc(Cl)c2)cc1
-13%	COc1ccc(-c2nc3cnc(N4CCOCC4)nc3n(CCC#N)c2=O)cc1
-21%	COc1cccc(-c2nc3ccc(O)cc3c(=O)o2)c1
-6%	O=C(CN(c1ccccn1)S(=O)(=O)c1ccccc1)N/N=C/c1cccc([N+](=O)[O-])c1
-9%	Cc1ccc(NC(=O)c2cc(=O)c3ccccc3o2)cc1
-11%	Cc1ccc(-c2cc(C(=O)Nc3ccc(S(=O)(=O)Nc4nc(C)cc(C)n4)cc3)c3ccccc3n2)cc1
-28%	Cc1cc([N+](=O)[O-])c(-c2ccc(/C=N/n3cnnc3)o2)cc1Cl
-9%	C[C@H]1CCC[C@]2(O[C@@H](CCO)C[C@H](O)[C@H]2O)O1
32µM*	COc1ccc(C(=S)N2CCOCC2)cc1OS(=O)(=O)c1ccccc1[N+](=O)[O-]
-10%	Cn1ncc2c(NNC(=O)c3ccccc3Cl)ncnc21
-23%	Cc1cc(C)nc(NC2=NCC(=O)N2CCc2c[nH]c3ccccc23)n1
-4%	Cc1cc(/C(O)=C2\C(=O)C(=O)N(CCN(C)C)C2c2ccncc2)ccc1OCc1ccccc1 (centres undefined)
20µM*	O=C(CNS(=O)(=O)c1ccccc1)NCC(=O)OCc1ccc(C(=O)c2ccccc2)cc1
-14%	Cc1ccc(-c2nnc(NC3CCCCC3)c3ccccc23)cc1S(=O)(=O)N1CCN(C)CC1
-10%	Cc1ccc2c(c1)n([O-])c1c([n+]2=O)CCCC1
-10%	Cc1cc(Cl)c(S(=O)(=O)NCCC(=O)O)cc1OCC(N)=O
-4%	CCc1ccc(C2=NN(C(=O)OC)C(O)(C(F)(F)F)C2)cc1 (centres undefined)
-5%	O=C(COC(=O)Cn1cnc2ccccc2c1=O)Nc1ccccc1Sc1ccc(Cl)cc1
-2%	CS(=O)(=O)N1CC(C(=O)NC2CC2)Oc2ccc(Cl)cc21 (centres undefined)
-12%	CCCCNC(=O)c1ccccc1NS(=O)(=O)c1ccc2c(c1)OCCO2
-5%	CCS(=O)(=O)N1CCC(C(=O)NC2CCCCC2)CC1
-25%	CC(C)c1ccccc1OCC(=O)NC1CCCc2ccccc21 (centres undefined)
-9%	Cc1cc(=O)[nH]c(SCc2csc(-c3ccccc3)n2)n1
-23%	C=CCc1cccc(CNc2nc3ccccc3n2CC)c1O
-15%	C=CCn1cnc2c(c1=O)c1nc3ccccc3nc1n2/N=C/c1cc(OC)c(OC)c(OC)c1
u	Cc1sc2ncnc(N(C)Cc3ccco3)c2c1C
-11%	CCOC(=O)C(Cc1ccccc1)C(=O)Nc1ccc(NC(=O)C(Cc2ccccc2)C(=O)OCC)cc1 (centres undefined)
-22%	COC(=O)c1ccc(NC(=O)Cn2nc(SC)n(N)c2=S)cc1
u	O=c1oc2ccccc2cc1-c1nc2ccccc2o1
-7%	Cc1ccc2c(c1)nnn2C1CCN(C(=O)c2cccs2)CC1
-10%	NC(=O)c1ccc(Cc2ncc(C(F)(F)F)cc2Cl)s1
2%	Cc1ccc(C2CC(=O)Nc3cc4c(cc32)OCO4)o1 (centres undefined)
-14%	O=C(COc1ccc2ccccc2c1Br)NNC(=O)Nc1ccccc1
-21%	CCOC(=O)COc1ccc(C(=O)NC2CCCCC2)cc1
-7%	c1ccc(-n2ncc3c2ncn2c(CSc4nc5ccccc5s4)nnc32)cc1
-6%	O=C1NC2(CCCC2)N=C1c1ccc(Cl)cc1
-7%	Nc1nnc(SCC(=O)OCc2ccccc2)s1
0%	COC(=O)c1sc(C(=O)OC)c(C(=O)OC)c1C(=O)OC
-1%	COc1cc2c(cc1OC)CN(C(C)C(=O)Nc1ccc(NC(C)=O)cc1)CC2 (centres undefined)
28µM*	CCOC(=O)c1sc(=S)n(C)c1NC(=O)c1ccccc1Cl
-5%	CC1=CC(c2ccccc2)n2nc(N3C(=O)c4ccccc4C3=O)nc2N1 (centres undefined)
u	COc1cccc(Nc2nc(NCC3CCCO3)c3ccccc3n2)c1 (centres undefined)
-1%	COc1ccc(N2CCN(C(=O)CN(Cc3ccc(Cl)cc3)S(C)(=O)=O)CC2)cc1
-8%	CCc1c(C)nc2ncnn2c1NCc1cccs1
u	CCn1c2ccccc2c2cc(NC(=O)c3cc(OC)cc(OC)c3)ccc21
-4%	Cc1ccc2nc(SCC(=O)Nc3ccc4sc(C)nc4c3)c(C#N)cc2c1
